Assay outcomes deposited in PubChem BioAssay by National Center for Advancing Translational Sciences (NCATS).
Rango release inh = inhibitors of RanGTP-induced Rango-importin beta complex dissociation. hit rate 0.071% among 340,000. Biochemical FRET Rango-importin beta, RanGTP-induced dissociation. Potency, µM (top dose mostly 46.1 µM), without a hit: at the top dose activity change, negative = inhibition. AID 540253; active means falling FRET ratio curve, often poorly fitted, with flat reads before Ran was added; inconclusive means other falling curves, or compound fluorescence or quenching; inactive means flat or rising ratio curve;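 also: potency is read from the fitted curve at half-maximal effect; % of control where 0% means no effect; nearly all actives have a fitted effect of over 45% in size; -100% = wells without RanGTP and RCC1; the record marks most hits as doubtful in a second field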
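Rango (0.1 uM)–importin beta (0.25 uM) complex; RanGTP-RCC1 trigger; 45 min RT; CFP/YFP FRET read.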
GLA inh pH 4.5 = inhibitors of human alpha-galactosidase A at pH 4.5 | purified enzyme, 4-MU-alpha-Gal fluorescence, pH 4.5 | activity change, negative = inhibition, % at 105 µM | 230,000 tested, under 10 active | AID 1467; inconclusive = small, poorly fitted or top-dose-only inhibition, or a rising curve; inactive = flat fitted curve, though single readings scatter; no compound was filed as active;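 also: 0% = full activity with enzyme and -100% = basal without enzyme; dose as in the result columns while the protocol names 77 µM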
Target sequence (P06280 whole entry, looked up): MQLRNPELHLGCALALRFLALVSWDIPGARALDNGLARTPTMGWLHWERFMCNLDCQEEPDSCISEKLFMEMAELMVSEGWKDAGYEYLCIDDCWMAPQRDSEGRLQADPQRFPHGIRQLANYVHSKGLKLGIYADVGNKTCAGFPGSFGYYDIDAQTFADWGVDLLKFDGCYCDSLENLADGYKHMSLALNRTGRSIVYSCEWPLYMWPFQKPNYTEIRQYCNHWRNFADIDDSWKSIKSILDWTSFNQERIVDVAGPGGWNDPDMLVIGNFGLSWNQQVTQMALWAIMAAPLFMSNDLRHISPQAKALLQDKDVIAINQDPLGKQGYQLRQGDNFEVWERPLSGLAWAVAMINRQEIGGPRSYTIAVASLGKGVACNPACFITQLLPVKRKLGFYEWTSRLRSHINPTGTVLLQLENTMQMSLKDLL
miR-21 FLuc = raises the signal of a miR-21 reporter | HeLa miR-21 FLuc reporter, luciferase, 48 h | Potency, µM (titrated, usually from 38.3 µM), for inactives: at the highest dose reporter change, positive = more light | 340,000 tested, under 10 active | AID 2288; active = well fitted rising curve with a large enough effect; inconclusive = small, poorly fitted or top-dose-only effect; inactive = no such curve, though single readings can be large or run the other way;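 also: % of control where 0% means no effect; miR-21 action dims this reporter so a rising signal means less miR-21 action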
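Luminescence from a firefly luciferase reporter carrying a miR-21 binding site downstream, stably expressed under a CMV promoter in HeLa cells that make miR-21 endogenously, reports miRNA modulation after 48 h compound exposure up to approximately 40uM final.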
Rango-impB inh = prevents formation of the Rango-importin beta complex; Rango CFP/YFP FRET sensor + importin beta, 45 min; Potency, µM (top dose mostly 92.2 µM), without a hit: at the highest dose inhibition of complex formation; hit rate 0.031% among 340,000; AID 540263; active = rising FRET ratio curve, often small or poorly fitted; inconclusive = mostly compound fluorescence or quenching in the first reads; inactive = flat curves in all reads;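 also: potency is read from the fitted curve at half-maximal effect; 0% = DMSO wells and 100% = buffer wells lacking importin beta; nearly all actives have a fitted effect of over 15% in size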
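FRET biosensor (snurportin 1 IBB flanked by EYFP and cerulean), 50 nM, with compound 5 min, then 0.125 microM importin beta in PBS, 1 mM DTT, 0.02% Tween-20, 0.1% BSA. CFP/YFP ratio read after 45 min at room temperature; pre-read flags interference.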
* = called active by the depositor; u = inconclusive; x = not tested or not shown.

Rango release inh	GLA inh pH 4.5	miR-21 FLuc	Compound	Rango-impB inh
0%	2	-14%	CCCNC(=O)c1nc2ncc(Br)cn2n1	-1.7%
-9%	-9	-13%	CCOP(=O)(OCC)c1nc(-c2cccc([N+](=O)[O-])c2)oc1N1CCCCC1	3.1%
-17%	-2	17%	Clc1ccc(C2=C3CCCCn4c(-c5ccccc5)c[n+](c43)C2)cc1	u
x	3	3%	CCC(NC(=O)COc1ccc([N+](=O)[O-])cc1)c1ccccc1 (stereo not given)	x
1%	7	-53%	COc1ccc(-c2noc(-c3ccc(C)cc3)n2)cc1	-0.7%
-1%	x	x	CC[C@]12c3[nH]c4ccccc4c3CCN1C(=O)C(CC(=O)NCCN1CCOCC1)C[C@@H]2C(=O)N1CCN(C(=O)C2CC2)CC1 (stereo not given in full)	-2.2%
0%	-27	-4%	O=C(O)c1ccccc1OCCOc1ccccc1C(=O)O	3.4%
10%	-6	-7%	Cn1c(=O)c2c(nc(N3CCNCC3)n2Cc2cccc3ccccc23)n(C)c1=O	-4.5%
-2%	6	0%	O=C(c1ccc(N2C(=O)CCC2=O)cc1)N1CCN(c2ccccc2)CC1	-0.6%
-9%	x	-8%	CSc1ncc(C(=O)Nc2cccc(Cl)c2C)c(C)n1	u
0%	x	4%	Cc1ccc(CN2CCC(Oc3cccc(C(=O)NCc4cccnc4)c3)CC2)o1	-0.3%
1%	7	2%	O=C(C1CCN(S(=O)(=O)c2ccc(Cl)cc2)CC1)N1CCOCC1	4.2%
28%	-3	-3%	COc1ccc(/C(C)=N/N2CCOCC2)c(O)c1	1.9%
-25%	3	0%	COc1ccc(NC(=O)CCN2CCN(S(=O)(=O)c3cc(Cl)ccc3OC)CC2)cc1	-2.2%
-3%	4	0%	O=C(O)CCN1Cc2ccccc2C1=O	-3.1%
-1%	12	5%	COC(=O)Cc1cc(OC)c(OC)cc1S(=O)(=O)N(C)C	3.2%
-3%	x	x	Cc1ccc(NC(=O)CN(C)C(=O)c2ccc(Sc3nncn3C)c([N+](=O)[O-])c2)cc1	-1.3%
3%	x	x	Cc1ccc(S(=O)(=O)N2CCOCC2)cc1NC(=O)COC(=O)c1cccc(Cl)c1Cl	0.7%
-19%	x	x	C=CCOc1ccccc1/C=c1\sc2nc(-c3oc4ccccc4c3C)nn2c1=O	-1.0%
10%	8	-9%	Cc1cc(C)c2c(n1)nn1c(C)c(CCC(=O)NCc3ccco3)c(C)nc21	u
0%	x	7%	CCOc1cccc(N(C(=O)CNC(=O)c2ccco2)C(C(=O)NCC2CCCO2)c2ccccc2)c1 (stereo not given)	0.1%
u	1	-15%	CC(C)(C)c1ccc(C2=NC(=O)C(CC(=O)O)S2)cc1 (stereo not given)	u
-2%	x	x	O=C(NCCN1CCOCC1)c1cccc(Br)c1	3.0%
-4%	-5	u	Cc1ccc(C)c(N2CCN(C(=O)c3ccc(Cn4c(=O)[nH]c5ccccc5c4=O)cc3)CC2)c1	-0.2%
-7%	x	-79%	Clc1ccccc1OCCn1nnc2ccccc21	3.4%
1%	6	1%	O=C(NC1CCCCC1)C(=S)N1CCCC1	-2.1%
u	x	x	CC(=O)Oc1ccc(C23c4ccccc4C2(OC(C)=O)c2cc(OC(C)=O)ccc23)cc1 (stereo not given)	u
-3%	6	1%	Cc1ccc(C2CC(=O)C(C=NCCN3CCN(CC(=O)Nc4cc(C)cc(C)c4)CC3)=C(O)C2)cc1 (stereo not given)	-2.4%
-6%	4	-2%	CCCCCC/C(C)=C1/SC(=S)NC1=O	u
-5%	-8	-3%	CC(=O)Nc1ccc(/C=N/Nc2nc3ccccc3[nH]2)cc1	0.3%

Full records, looked up by structure:
`CCC(NC(=O)COc1ccc([N+](=O)[O-])cc1)c1ccccc1` (stereo not given) is entered as Rango release inh = x; GLA inh pH 4.5 = 3; miR-21 FLuc = 3%; Rango-impB inh = x
`CCOP(=O)(OCC)c1nc(-c2cccc([N+](=O)[O-])c2)oc1N1CCCCC1` is entered as Rango release inh = -9%; GLA inh pH 4.5 = -9; miR-21 FLuc = -13%; Rango-impB inh = 3.1%
`Cc1ccc(C)c(N2CCN(C(=O)c3ccc(Cn4c(=O)[nH]c5ccccc5c4=O)cc3)CC2)c1` is entered as Rango release inh = -4%; GLA inh pH 4.5 = -5; miR-21 FLuc = u; Rango-impB inh = -0.2%

Limited to miR-21 FLuc (three entries from above):
molecule | miR-21 FLuc
CCC(NC(=O)COc1ccc([N+](=O)[O-])cc1)c1ccccc1 (stereo not given) | 3%
O=C(c1ccc(N2C(=O)CCC2=O)cc1)N1CCN(c2ccccc2)CC1 | 0%
CC(=O)Nc1ccc(/C=N/Nc2nc3ccccc3[nH]2)cc1 | -3%

Following part
Rango release inh	GLA inh pH 4.5	miR-21 FLuc	Compound	Rango-impB inh
0%	x	1%	CC(Cc1cccs1)NC(=O)CCCn1nnnc1CN1CCOCC1 (stereo not given)	3.8%
8%	-3	-5%	CCCCOC(=O)c1ccc(NC(=O)C(=O)NCCN(C)C)cc1	-1.3%
-10%	4	3%	CCCCNC(=O)C1CCCNC1=O (stereo not given)	-3.0%
-2%	0	-2%	N#Cc1ccc(/C=C/C(=O)c2ccc3c(c2)OCO3)cc1	-0.3%
-4%	7	4%	COC(=O)C(O)(CC(=O)Nc1ccc(C)c(F)c1)C(F)(F)F (stereo not given)	-2.0%
10%	-2	-4%	O=c1cc(O)c(-c2ccccc2Cl)c(Cl)[nH]1	-0.8%
-5%	3	0%	Nc1cccc2cnccc12	-4.6%
-18%	-12	0%	O=C(CCCN1C(=O)c2ccccc2C1=O)Nc1nc2ccccc2[nH]1	-0.3%
-12%	-6	u	O=[N+]([O-])c1ccc(/C=N/N=C/c2ccc([N+](=O)[O-])o2)o1	-4.2%
-8%	x	-17%	Cc1cc(C(=O)Nc2cccc3ccccc23)co1	-1.2%
24%	5	-5%	Cc1ccc(S(=O)(=O)N/N=C2/CC(c3ccccc3)Oc3ccccc32)cc1 (stereo not given)	0.1%
13%	x	x	COc1ccccc1-c1nn(-c2ccccc2)cc1C(=O)NCC(c1ccco1)N1CCCC1 (stereo not given)	11%
0%	-3	1%	CC(C)(C)N1CSC(=S)N(Cc2ccccc2)C1	-1.7%
x	-11	-25%	CN(C)c1c(-c2ccccc2)cc(-c2ccccc2)[nH]c1=O	x
13%	-7	-9%	CC(C(=O)N/N=C/c1ccc(N(C)C)c(Br)c1)N(c1ccccc1)S(C)(=O)=O (stereo not given)	-1.3%
0%	-6	-4%	CCOc1ccc(-n2c(SCC(=O)c3c(N)n(C)c(=O)n(C)c3=O)nnc2-c2cccnc2)cc1	0.2%
-17%	2	0%	Cc1ccc(C)c(N2C(=O)CC(N3CCN(Cc4ccc5c(c4)OCO5)CC3)C2=O)c1 (stereo not given)	-1.1%
12%	-20	9%	O=[N+]([O-])c1ccc(Sc2ncc3ccccn23)nc1	-0.3%
-6%	x	-3%	O=C(NCc1nnc(SCC(=O)N2CCCC2)o1)c1cccc(C(F)(F)F)c1	0.9%
6%	-12	-5%	Nc1nnc(CC(=O)N/N=C\c2cc([N+](=O)[O-])ccc2O)s1	-1.0%
14%	1	-29%	O=C(CSc1nc2ncccc2[nH]1)c1ccc2c(c1)OCO2	0.6%
6%	-12	-7%	Cc1cc(Cl)ccc1NC(=S)N1CCC(C(N)=O)(N2CCCCC2)CC1	-3.6%
13%	6	-6%	COc1ccc(OC)c(N(CC(=O)NCCSc2ccccc2)S(C)(=O)=O)c1	2.1%
-13%	1	-16%	Cc1cc(=O)c2n(Cc3ccc(Cl)cc3)nc[n+]2[nH]1	0.3%
-1%	-12	6%	O=C(Nc1cccc(S(=O)(=O)Nc2ccc(Cl)cc2)c1)c1ccc2c(c1)OCCO2	5.8%
-1%	3	-12%	COC(=O)c1ccccc1NC(=S)NC(=O)COc1ccccc1	-3.8%
2%	-2	5%	Cc1cc2nc3n(c2cc1C)CC1CC(C(=O)NCc2cccc(C(F)(F)F)c2)N(C)C31 (stereo not given)	3.1%
-12%	x	x	Cc1ccc(N2CC(C(=O)NNC(=O)c3ccc(F)cc3)CC2=O)cc1 (stereo not given)	-1.7%
-3%	-9	-16%	COc1ccc(-c2nnnn2C(C)C)cc1S(=O)(=O)Nc1ccccc1	-2.3%
14%	x	x	O=C(/C=C/c1ccc(S(=O)(=O)N2CCOCC2)cc1)Nc1cc(F)ccc1F	0.9%

Given with values under each structure: entries from further up
Order of results – Rango release inh | GLA inh pH 4.5 | miR-21 FLuc | Rango-impB inh
> Nc1nnc(CC(=O)N/N=C\c2cc([N+](=O)[O-])ccc2O)s1
  6% | -12 | -5% | -1.0%
> O=C(CSc1nc2ncccc2[nH]1)c1ccc2c(c1)OCO2
  14% | 1 | -29% | 0.6%

The list goes on.
Rango release inh	GLA inh pH 4.5	miR-21 FLuc	Compound	Rango-impB inh
-6%	-7	-6%	CN(C)c1ccc(CNC23CN4CN(CN(C4)C2)C3)cc1	4.8%
-22%	3	-20%	Clc1ccc(C2=CSC3=Nc4cccc5cccc(c45)N23)cc1	-2.6%
-8%	7	-2%	O=C(NCCCO)C(=O)NCc1ccccn1	-2.7%
-8%	3	-54%	N=C(N)SCc1nc2ccccc2c(=O)n1-c1ccccc1Cl	u
-12%	x	-2%	O=C(NCCc1ccc(C(F)(F)F)cc1)C1COc2ccccc2O1 (stereo not given)	0.4%
-23%	-5	-5%	COc1ccc(NC(=O)CC2C(=O)NCCN2C(=O)c2ccc(Cl)cc2)cc1 (stereo not given)	1.3%
0%	x	-9%	O=C(c1ccc2ncsc2c1)N1CCCCC1	-3.3%
u	2	-13%	Cc1ccc(SCCC(=O)Nc2ccccc2C(=O)N2CCOCC2)cc1	-0.8%
12%	0	-6%	CNC(=O)C1CC(=O)N(Cc2ccc3c(c2)OCO3)C(=Nc2ccc(OC)cc2)S1 (stereo not given)	-3.0%
-3%	-8	-8%	O=C(NCCN1CCOCC1)c1ccc2ccccc2n1	-0.5%
7%	10	-13%	O=C(NCc1cccs1)c1cccc(N2CCCC2=O)c1	u
-6%	-6	12%	c1ccc(N2CCN(Cc3ccnc4ccccc34)CC2)cc1	0.0%
-25%	x	-14%	CCc1ccc(NC2=CC(=O)CC(C)(C)C2)cc1	3.4%
-1%	x	-52%	CC1CCCN(C(=O)Cn2nnc(-c3ccccc3F)n2)C1 (stereo not given)	0.3%
3%	-6	4%	O=C(CC(=O)Nc1ccc(Cl)c(Cl)c1)N/N=C/c1ccc(O)cc1	-0.1%
1%	-5	-5%	O=C(NCC1CCCN(Cc2ccc3nonc3c2)C1)c1ccc(F)cc1 (stereo not given)	3.4%
1%	-8	u	O=S(=O)(Nc1cccc2ncccc12)c1cccs1	0.1%
-4%	2	-5%	Cc1ccc(O)c(CNc2ccc(S(=O)(=O)Nc3nccs3)cc2)c1	-0.2%
-2%	x	x	Cc1ccsc1CN(C)C(=O)C(NC(=O)c1cccc(S(=O)(=O)N2CCOCC2)c1)C(C)C (stereo not given)	4.3%
-8%	x	x	CCN(CC(=O)Nc1ccc2c(c1)OCCO2)C(=O)C(C)Oc1ccc(F)cc1 (stereo not given)	-3.2%
4%	x	x	CCn1cnnc1SCC(=O)Nc1ccccc1C(=O)NC1CC1	-1.0%
-11%	8	-6%	COc1ccc(CCn2c(C)nc3ccccc3c2=O)cc1OC	0.4%
1%	6	-56%	c1ccc(Cn2cc(CSc3ccccc3)nn2)cc1	-0.6%
19%	1	0%	Cc1ncc(CN2CCC(CO)(CCOc3ccccc3)CC2)s1	u
0%	9	-5%	OCC[C@@H]1C[C@@H](O)[C@H](O)[C@]2(CCCCO2)O1	-0.8%
-14%	-3	23%	CCc1ccc(/C=C/C(=O)c2cc(Br)ccc(=O)c2O)cc1	-2.0%
2%	-1	-4%	CSC1=C(C#N)C(c2ccc(C(C)C)cc2)CC(=O)N1 (stereo not given)	3.4%

2 entries from above, as tab-separated lines:
Compound	Rango release inh	GLA inh pH 4.5	miR-21 FLuc	Rango-impB inh
O=C(CC(=O)Nc1ccc(Cl)c(Cl)c1)N/N=C/c1ccc(O)cc1	3%	-6	4%	-0.1%
CCc1ccc(NC2=CC(=O)CC(C)(C)C2)cc1	-25%	x	-14%	3.4%

Only part of the results is shown; count on the stated rates, not on these rows.
